# Cruzain Triton – inhibitors of Trypanosoma cruzi cruzain with detergent. AID 1478. 0.43% of 200,000 active. Potency, µM, for the others: max response, negative = inhibition, actives largely listed as inhibitors. purified cruzain, Z-FR-AMC fluorescence, 0.01% Triton;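 also: plate controls were neutral wells for no effect and buffer without enzyme for full effect; nearly all actives have a fitted effect of over 40% in size; top concentration of the series not given in the record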
# Target sequence (P25779 123-467 limits assumed): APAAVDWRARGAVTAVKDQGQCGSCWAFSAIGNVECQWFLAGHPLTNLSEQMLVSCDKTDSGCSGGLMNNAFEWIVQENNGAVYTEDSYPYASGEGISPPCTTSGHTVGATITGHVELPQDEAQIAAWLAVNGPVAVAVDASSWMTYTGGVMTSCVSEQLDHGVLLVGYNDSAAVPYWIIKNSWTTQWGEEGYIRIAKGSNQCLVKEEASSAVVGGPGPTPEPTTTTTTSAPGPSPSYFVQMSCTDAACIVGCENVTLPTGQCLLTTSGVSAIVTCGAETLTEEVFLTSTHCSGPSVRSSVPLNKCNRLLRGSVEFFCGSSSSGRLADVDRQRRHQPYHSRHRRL
#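 Purified cruzain (1.5 nM final) was preincubated with compounds for 15 min at room temperature in 100 mM sodium acetate pH 5.5, 5 mM DTT, 0.01% Triton X-100. Reaction started with 2 uM Z-FR-AMC; AMC fluorescence change over 60 s gave activity.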
# MARV entry inh – Marburg virus entry inhibition; Marburg virus pseudotyped entry inhibition, cell reporter; control for the full effect not named in the record; about a third of the inactives were read at about 46 µM; Potency, µM (doses to about 37.8 µM), inactives show top-dose activity change, negative = inhibition, usual class: inhibitors; 1.8% of 300,000 active; active = well fitted inhibition curve with a large enough effect; inconclusive = small, poorly fitted or top-dose-only effect, or effect the other way; inactive = flat fitted curve, though single readings scatter; tested in HEK293 cells; about a fifth of its hits are not listed in these tables; also: % is scaled to controls: 0 for no effect and ±100 for the full control effect; luciferase read-out
# Lassa entry inh – inhibitors of Lassa virus binding or cell entry; Lassa virus pseudotype entry inhibition, cell reporter; control for the full effect not named in the record; Potency, µM (top dose mostly 37.9 µM), for inactives: top-dose activity change, negative = inhibition, most hits filed as inhibitors; 1.2% of 300,000 active; AID 540256; active means well fitted inhibition curve with a large enough effect; inconclusive means small, poorly fitted or top-dose-only effect, or effect the other way; inactive means flat fitted curve, though single readings scatter; tested in HEK293 cells; also: % is scaled to controls: 0 for no effect and ±100 for the full control effect; nearly all actives have a fitted effect of over 50% in size; luciferase read-out
# RE007 growth inh – less growth of the S. pombe RE007 Vpr strain. Potency, µM (titrated, usually from 92.2 µM), without a hit: top-dose activity change, negative = less growth. S. pombe RE007 Vpr strain, BacTiter-Glo ATP luminescence, 24 h; control for the full effect not named in the record. AID 651644. 0.21% of 360,000 active; active = well fitted falling curve with a large enough effect; inconclusive = small, poorly fitted or top-dose-only effect; inactive = no such curve, though single readings can be large or run the other way;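 also: % is scaled to controls: 0 for no effect and ±100 for the full control effect; nearly all actives have a fitted effect of over 50% in size; the assay follows cell death caused by Vpr and the record does not say whether a fall means rescue or toxicity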
#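 Fission yeast strain RE007, carrying one chromosomally integrated HIV-1 vpr copy, was seeded at OD 0.01 in PMG+AL medium with 23 nL pinned compound. After 24 h at 30 °C and 99% humidity, viability was read by BacTiter-Glo luminescence.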
# NS1 inh – blocks influenza NS1 protein function; S. cerevisiae slowed by influenza A NS1, growth recovery by OD600; Potency, µM (doses to about 46.1 µM), without a hit: at the top dose activity, positive = more growth; 0.4% of 270,000 active; AID 2326; active means well fitted rising curve with a large enough effect; inconclusive means small, poorly fitted or top-dose-only effect; inactive means no such curve, though single readings can be large or run the other way; also: nearly all actives have a fitted effect of over 50% in size
#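 S. cerevisiae expressing influenza A NS1, grown in glucose, washed, then diluted 1:100 into pH 6.0 -URA galactose medium with 23 nl compound. Growth recovery read as OD600; NS1-free strain serves as control.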
# SARS PLP yeast – SARS-CoV PLP inhibition in yeast. S. cerevisiae expressing SARS-CoV PLpro, growth rescue; control for the full effect not named in the record. Potency, µM (titrated, usually from 32.9 µM), for the others: top-dose activity, positive = growth rescue. 0.19% of 330,000 active. AID 485353; active means well fitted rising curve with a large enough effect; inconclusive means small, poorly fitted or top-dose-only effect; inactive means no such curve, though single readings can be large or run the other way; also: 0% is about no effect; nearly all actives have a fitted effect of over 55% in size; growth read by luminescence after 48 h
# Cruzain inh noDet – cruzain (T. cruzi) inhibition without detergent | P25779 | purified cruzain, Z-FR-AMC fluorescence, no detergent | Potency, µM, for the others: max response, negative = inhibition, hits mostly inhibitors | 2.3% of 200,000 active | AID 1476;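 also: plate controls were enzyme without inhibitor for no effect and buffer without enzyme for full effect; nearly all actives have a fitted effect of over 40% in size; top concentration of the series not given in the record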
#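 Purified cruzain at 1.5 nM, pre-incubated 15 min with compound at room temperature in 100 mM sodium acetate pH 5.5, 5 mM DTT, 0.00005% Triton X-100. Reaction started with 2 uM Z-FR-AMC; AMC fluorescence increase over 60 s gives rate.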
# 2A StopGo – lowers the luciferase signal of an FMDV 2A StopGo reporter. human cells with a luciferase reporter of 2A StopGo recoding; control for the full effect not named in the record. Potency, µM (highest dose often 57.9 µM), for inactives: top-dose signal change, negative = less light. 1.2% of 410,000 active. AID 1159524; active = well fitted falling curve with a large enough effect; inconclusive = small, poorly fitted or top-dose-only effect; inactive = no such curve, though single readings can be large or run the other way; tested in HEK293T cells; also: % is scaled to controls: 0 for no effect and ±100 for the full control effect; nearly all actives have a fitted effect of over 45% in size; luciferase light after 4 h
# * marks the source's active call; other numbers are inactive results; ? = inconclusive; nt = not tested or not shown; & = joins results of further samples; [ ] = remark or other dose. Unless noted, calls follow the shape of the dose curve; as a rule, active = well fitted curve in the direction sought with a large enough effect; inconclusive = small, poorly fitted or top-dose-only effect, or another doubt; inactive = no such curve, though single readings can be large; an effect the other way counts as inactive or inconclusive. Potency is read from the fitted curve at half-maximal effect. Outcome played no part in choosing rows; 4.6% or so of the library scored in one or more.
SMILES,Cruzain Triton,MARV entry inh,Lassa entry inh,RE007 growth inh,NS1 inh,SARS PLP yeast,Cruzain inh noDet,2A StopGo
COc1ccc(C2SCCN2C(=S)Nc2cccc(Cl)c2)cc1 (stereo not given),-2.6%,-33%,?,-30%,-23%,8%,2%,-22%
COc1ccc(C(CCNCc2ccc(F)cc2)c2ccc(F)cc2)cc1 (stereo not given),1.3%,15µM*,?,12%,-18%,-4%,7%,23%
NC1=NC(c2ccc([N+](=O)[O-])cc2)N(c2ccc(F)cc2)C(N)=N1 (stereo not given),nt,14%[46.1 µM],29%[46.1 µM],-14%,nt,nt,nt,-8%
Cc1cc(C)c2c(=O)c3c(oc2c1)C(=O)N(Cc1ccco1)C3c1ccccc1F (stereo not given),-2.5%,5%[46.1 µM],13%[46.1 µM],nt,nt,nt,-10%,2%
COc1ccc(-c2nnn(CC(=O)N(Cc3ccc(F)cc3)C(C(=O)NC3CCCC3)c3ccc(F)cc3)n2)cc1 (stereo not given),nt,0%,?,12%,nt,nt,nt,6%
CCCS(=O)(=O)N1CCCC(C(=O)NCCCOC)C1 (stereo not given),1.4%,nt,-9%[46.1 µM],nt,nt,nt,-10%,0%
O=C(/C=C/c1cccc([N+](=O)[O-])c1)NCC1CCCO1 (stereo not given),1.5%,5%,-4%,0%,10%,3%,-3%,11%
CCN(CC)c1ccc(NS(=O)(=O)c2ccc(-c3ccc(=O)[nH]n3)o2)c(C)c1,nt,nt,nt,-13%,-1%,5%,nt,-27%
O=C(CCC(=O)Nc1ccc(F)cc1)N/N=C/c1ccc(Br)cc1,nt,2%[46.1 µM],-7%[46.1 µM],4%,2%,1%,nt,18%
Clc1ccc(OCc2nnc(-c3ccccc3Br)o2)cc1,-7.3%,9%,10%,-18%,-25%,?,0%,22%
O=C(O)CCc1ccc(-c2ccc(Br)cc2)n1Cc1ccco1,-18%,20%,-8%,2%,-77%,-10%,?,-4%
N/C(=N\OC(=O)N1CCOCC1)c1ccc(Cl)cc1,1.7%,10µM*,?,-1%,-8%,3%,0%,16%
CCOc1ccc(NS(=O)(=O)c2ccc(NC(=S)NC(C)=O)cc2)cc1,nt,-15%,?,2%,4%,1%,nt,23%
C=CCNC(=O)/C(=C/c1ccc(Br)cc1)NC(=O)c1ccccc1OC,nt,0%[46.1 µM],?,8%,nt,-5%,nt,9%
O=C(Cn1cc(C(=O)C2CC2)c2ccccc21)Nc1ccc(Br)cc1,-0.1%,8%[46.1 µM],-1%[46.1 µM],nt,nt,nt,2%,-14%
Cc1ccc2cccc(Oc3nnnn3-c3ccccc3)c2n1,-5.2%,?,5%,10%,-13%,-7%,-1%,-17%
O=C(Nc1nccc(-c2cccs2)n1)c1cccs1,-4.0%,-6%,-12%,-16%,-56%,-16%,10%,15%
O=C(CCN1C(=O)COc2ccccc21)NCCCN1CCN(c2ccccc2F)CC1,0.7%,-6%,-9%,-6%,7%,-1%,-7%,nt
CC1CC(=O)c2ccccc2C1C (stereo not given),nt,14%[46.1 µM],7%[46.1 µM],2%,nt,nt,nt,18%
Cc1c(C(=O)Nc2ccccc2)oc2c1C(=O)CC(C)(C)C2,-2.8%,25%,-11%,-12%,-98%,-11%,-15%,25%
Cc1ncc([N+](=O)[O-])n1CC(=O)NC1CCCCC1,-1.1%,3%,-8%,10%,5%,5%,-7%,-19%
Cc1ccc(S(=O)(=O)N(C(=O)c2ccncc2)c2ccc3oc4c(c3c2)CCCC4)cc1[N+](=O)[O-],0.6%,?,-16%,17%,?,-1%,13µM*,19%
O=C(NCc1ccccc1)c1ccc2nc(N3CCOCC3)sc2c1,nt,-6%[46.1 µM],-6%,-10%,-5%,1%,nt,16%
C/C(=C(\C#N)C(=O)NCCN1CCOCC1)N(C)C,4.5%,14%,12%,8%,-5%,2%,-2%,nt
O=C(Nc1ccccc1)Nc1nnc(-c2cccs2)s1,-1.6%,?,?,7%,5%,11%,?,2%
CCOC(=O)N1CCN(C(=O)c2ccc(C#CC3(O)CCCCC3)cc2)CC1,3.2%,5%[46.1 µM],-1%,18%,1%,2%,18%,-2%
COC(=O)c1ccccc1NC(=O)c1cn(-c2ccc(C)c(C)c2)c(=O)c2ccccc12,-3.9%,?,?,3%,17%,18%,-15%,?
COc1cc(NC(=O)c2cccs2)c(OC)cc1NC(=O)c1ccco1,-5.5%,?,4%,6%,?,-11%,-1%,0%
Cc1cc(NC(=O)CSc2ccc3nnc(-c4cccnc4)n3n2)no1,-5.4%,nt,nt,-13%,-3%,0%,-5%,-19%
CCCCSc1nc(O)c(Cc2ccccc2)c(=O)[nH]1,-1.3%,14%,-1%,8%,-4%,-3%,?,-15%
COc1ccc(C=O)cc1COc1ccc2c(c1)OCO2,nt,-11%[46.1 µM],1%,-2%,nt,-3%,nt,20%
O=C(COC(=O)c1ccc(CNS(=O)(=O)c2ccc(F)c(Cl)c2)cc1)NC1CCCCCCC1,-6.2%,38%,-1%,0%,4%,-21%,4%,-9%
CC(=O)Nc1ccccc1C(=O)C(=O)Nc1cccc(C(=O)NC2CC2)c1,0.6%,9%,?,6%,-15%,17%,3%,33%[activator]
Cc1cccc(C(C)C)c1NC(=O)CN(C)Cc1cccc(F)c1,-3.3%,-28%,-29%,5%,-6%,-10%,3%,?
CC(OC(=O)CCC(=O)c1ccccc1)C(=O)Nc1ccc(F)cc1 (stereo not given),nt,-5%[46.1 µM],10%,-10%,nt,nt,nt,-1%
CCOC(=O)c1[nH]c(C(=O)O)c(CCC(=O)OC)c1C,4.6%,0%,8%,5%,-3%,-1%,-1%,9%
O=C(CCn1c(=O)c2ccccc2n(Cc2cccc(F)c2)c1=O)NCc1ccc2c(c1)OCO2,-0.2%,-3%[46.1 µM],17%[46.1 µM],nt,nt,nt,-7%,9%
CCOc1ccccc1N1CCN(C(=O)c2cccs2)CC1,nt,6%[46.1 µM],-21%[46.1 µM],4%,-5%,-2%,nt,-20%
O=S(=O)(c1ccc(F)cc1)c1nc(-c2ccccc2)oc1N1CCOCC1,nt,?,-21%,-5%,5%,-2%,nt,23%
CC(=O)NC(C(=O)OCC(=O)N(c1ccccc1)c1ccccc1)C(C)C (stereo not given),nt,-2%[46.1 µM],3%,4%,-2%,-1%,nt,1%
Cc1cc(C)c2c(n1)sc1c(=O)n(CC(=O)c3ccccc3)cnc12,nt,-8%,3%,-8%,-2%,5%,nt,40%[activator]
Nc1ccc(C(=O)O)cc1S(=O)(=O)O,nt,12%,1%,3%,-1%,1%,nt,-4%
CCCc1nnc(NC(=O)c2cccs2)s1,4.0%,?,?,-3%,-84%,-21%,1%,65%[activator]
COc1ccccc1NC(=O)Nc1ccc(S(=O)(=O)Nc2onc(C)c2C)cc1,nt,?,3%,27%,nt,0%,nt,0%
Cc1c(NS(C)(=O)=O)cccc1-c1nc2cccnc2s1,nt,nt,nt,-4%,-4%,0%,nt,10%
O=P(OC1CCS(=O)(=O)C1)(c1ccccc1)c1ccccc1 (stereo not given),-3.8%,-3%,-9%,11%,-6%,3%,-3%,1%
COc1ccc(NC(=O)c2ccc(-c3nn(C)c(=O)c4ccccc34)cc2)cc1,nt,?,?,9%,1%,1%,nt,-15%
CCC1=NN2C(=N)/C(=C/c3ccc(OS(=O)(=O)c4ccccc4)c(OC)c3)C(=O)N=C2S1,nt,0%[46.1 µM],8%[46.1 µM],-6%,7%,2%,nt,-7%
CCCNC(=O)Nc1cccc(C(=O)OC)c1,nt,nt,nt,-3%,-5%,0%,nt,28%
CCn1c(SCC(=O)c2ccc(Cl)cc2)nnc1-c1cccs1,-2.6%,-7%[46.1 µM],9%,-3%,-7%,9%,?,6%
CCc1ccc(OCCn2c(C3CC(=O)N(Cc4ccc(F)cc4)C3)nc3ccccc32)cc1 (stereo not given),-8.9%,?,-21%[46.1 µM],nt,nt,nt,17%,-41%
COc1ccc(C(C)=O)cc1COC(=O)CNC(=O)c1ccccc1F,-25%,6%,?,-8%,3%,10%,?,?
COc1ccc(NC(=O)CN(C)C(=O)c2cccc(-n3cccc3)c2)cc1,nt,0%&0%[46.1 µM],1%,-20%,nt,3%,nt,1%
O=C(Nc1ncc(Br)s1)C(Cc1ccccc1)n1cccc1 (stereo not given),-12%,nt,nt,?,-112%,-30%,-16%,0%
Cc1ccc(C2=Nc3ccccc3N(C(=O)c3ccccc3)C(C)C2)cc1 (stereo not given),-5.3%,-26%,?,6%,-31%,-11%,0%,0%
Cc1ccc(S(=O)(=O)Nc2cc3c(cc2N2CCOCC2)n(C)c(=O)n3C)cc1,-1.9%,-8%[46.1 µM],-20%[46.1 µM],nt,nt,nt,?,6%
O=C(NCc1cc(C(F)(F)F)ccc1F)C1CCC(=O)N(C2CC2)C1 (stereo not given),nt,6%,12%,3%,3%,2%,nt,-2%
COCCNC(=O)CN1CCC(n2c(C)nc3cc(C(F)(F)F)ccc32)CC1,0.1%,?,14%,-6%,-9%,1%,8%,-10%
CCC1=NN2C(=N)/C(=C\c3ccc(OCCOc4ccccc4OC)cc3)C(=O)N=C2S1,nt,?,0%,2%,15%,-2%,nt,?
CCN(CC(=O)Nc1c(F)cccc1F)C(=O)CCc1c[nH]c2ccccc12,nt,17%[46.1 µM],?,12%,-3%,0%,nt,-8%

# Other results.
SMILES,Cruzain Triton,MARV entry inh,Lassa entry inh,RE007 growth inh,NS1 inh,SARS PLP yeast,Cruzain inh noDet,2A StopGo
C=CCc1c(C)nc(SCC(=C)C)[nH]c1=O,2.2%,2%,-8%,9%,-2%,1%,0%,-20%
Cc1nn(-c2ccc(Cl)cc2)c(Cl)c1/C=C(\C#N)C(N)=O,-2.8%,13%,-1%,-23%,1%,-19%,4%,-24%
O=C(O)/C=C/c1ccc(S(=O)(=O)Nc2ccc3[nH]c(=O)[nH]c3c2)cc1,nt,22%[46.1 µM],-15%,12%,2%,2%,nt,13%
NC(=O)[C@@H]1CCCNc2c(I)cc([N+](=O)[O-])cc2C(=O)N[C@@H](CCC(=O)O)C(=O)N[C@@H](CO)C(=O)N1,-1.1%,4%,6%,3%,4%,-17%,-11%,-4%

# From PubChem
